# Screening results (PubChem)
# LASV entry inh = qHTS for Inhibitors of binding or entry into cells for Lassa Virus; Lassa virus pseudotype entry inhibition, cell reporter; control for the full effect not named in the record; AID 540256, 2011; 1.2% of 300,000 active; Potency, µM (series often up to 37.9 µM), for the others: at the top dose activity change, negative = inhibition, usual class: inhibitors; active means well fitted inhibition curve with a large enough effect; inconclusive means small, poorly fitted or top-dose-only effect, or effect the other way; inactive means flat fitted curve, though single readings scatter; tested in HEK293 cells; note: % is set by controls: 0 for no effect and ±100 for the full control effect; nearly all actives have a fitted effect of over 50% in size; luciferase read-out
# NS1 function inh = qHTS Assay for Inhibitors of Influenza NS1 Protein Function. S. cerevisiae slowed by influenza A NS1, growth recovery by OD600. Potency, µM (doses to about 46.1 µM), for the others: top-dose activity, positive = more growth. 0.4% of 270,000 active. AID 2326, 2010; note: actives are rising curves; nearly all actives have a fitted effect of over 50% in size
#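 S. cerevisiae expressing influenza A NS1, grown in glucose, washed, then diluted 1:100 into pH 6.0 -URA galactose medium with 23 nl compound. Growth recovery read as OD600; NS1-free strain serves as control.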
# Cruzain inh Det = qHTS Assay for Promiscuous and Specific Inhibitors of Cruzain (with detergent); Potency, µM, without a hit: max response, negative = inhibition, usual class: inhibitors; purified cruzain, Z-FR-AMC fluorescence, 0.01% Triton; AID 1478, 2009; 0.43% of 200,000 active; active = well fitted curve in the direction sought with a large enough effect; inconclusive = small, poorly fitted or top-dose-only effect, or another doubt; inactive = no such curve, though single readings can be large; an effect the other way counts as inactive or inconclusive;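 note: plate controls were neutral wells for no effect and buffer without enzyme for full effect; nearly all actives have a fitted effect of over 40% in size; top concentration of the series not given in the record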
# Target sequence (P25779 123-467 limits assumed): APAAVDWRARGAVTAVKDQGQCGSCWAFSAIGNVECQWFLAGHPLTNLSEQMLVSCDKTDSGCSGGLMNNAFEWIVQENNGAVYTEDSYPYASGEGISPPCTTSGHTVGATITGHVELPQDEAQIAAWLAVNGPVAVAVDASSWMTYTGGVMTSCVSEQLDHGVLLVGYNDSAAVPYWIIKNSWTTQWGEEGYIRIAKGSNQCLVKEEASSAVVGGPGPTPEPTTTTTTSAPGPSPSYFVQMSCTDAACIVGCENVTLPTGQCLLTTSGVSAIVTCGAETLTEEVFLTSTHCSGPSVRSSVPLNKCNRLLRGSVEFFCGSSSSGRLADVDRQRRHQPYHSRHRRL
#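 15 min RT preincubation of 1.5 nM cruzain with compound, then 2 uM Z-FR-AMC added; kinetic AMC fluorescence, 60 s delta. Triton X-100 0.01%, pH 5.5.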
# RE007 growth inh = qHTS Assay for Inhibitors of the HIV-1 protein Vpr; AID 651644, 2012; Potency, µM (doses to about 92.2 µM), for the others: top-dose activity change, negative = less growth; 0.21% of 360,000 active; S. pombe RE007 Vpr strain, BacTiter-Glo ATP luminescence, 24 h; control for the full effect not named in the record; active = well fitted falling curve with a large enough effect; inconclusive = small, poorly fitted or top-dose-only effect; inactive = no such curve, though single readings can be large or run the other way;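 note: % is set by controls: 0 for no effect and ±100 for the full control effect; nearly all actives have a fitted effect of over 50% in size; the assay follows cell death caused by Vpr and the record does not say whether a fall means rescue or toxicity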
#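 Fission yeast RE007 carrying one integrated HIV-1 vpr copy, seeded at OD 0.01 in PMG+AL medium with 23 nL pinned compound. Grown 24 h at 30 degrees; viability read by BacTiter-Glo luminescence after 5 min.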
# Marburg entry inh = qHTS for inhibitors of binding or entry into cells for Marburg Virus; Marburg virus pseudotyped entry inhibition, cell reporter; control for the full effect not named in the record; about a third of the inactives were read at about 46 µM; 1.8% of 300,000 active; Potency, µM (highest dose often 37.8 µM), for inactives: top-dose activity change, negative = inhibition, usual class: inhibitors; AID 540276, 2011; active = well fitted inhibition curve with a large enough effect; inconclusive = small, poorly fitted or top-dose-only effect, or effect the other way; inactive = flat fitted curve, though single readings scatter; tested in HEK293 cells; about a fifth of its hits are not listed in these tables; note: % is set by controls: 0 for no effect and ±100 for the full control effect; luciferase read-out
# Cruzain inh noDet = qHTS Assay for Promiscuous and Specific Inhibitors of Cruzain (without detergent) | Cruzipain (Trypanosoma cruzi), P25779 | Potency, µM, for the others: max response, negative = inhibition, hits mostly inhibitors | purified cruzain, Z-FR-AMC fluorescence, no detergent | AID 1476, 2009 | 2.3% of 200,000 active; active = well fitted curve in the direction sought with a large enough effect; inconclusive = small, poorly fitted or top-dose-only effect, or another doubt; inactive = no such curve, though single readings can be large; an effect the other way counts as inactive or inconclusive;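 note: plate controls were enzyme without inhibitor for no effect and buffer without enzyme for full effect; nearly all actives have a fitted effect of over 40% in size; top concentration of the series not given in the record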
#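 Purified cruzain at 1.5 nM, pre-incubated 15 min with compound at room temperature in 100 mM sodium acetate pH 5.5, 5 mM DTT, 0.00005% Triton X-100. Reaction started with 2 uM Z-FR-AMC; AMC fluorescence increase over 60 s gives rate.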
# SARS PLP yeast = qHTS of Yeast-based Assay for SARS-CoV PLP; Potency, µM (doses to about 32.9 µM), inactives show at the top dose activity, positive = growth rescue; S. cerevisiae expressing SARS-CoV PLpro, growth rescue; control for the full effect not named in the record; 0.19% of 330,000 active; note: 0% is about no effect; nearly all actives have a fitted effect of over 55% in size; growth read by luminescence after 48 h
# StopGo reporter = High Throughput Screening for Foot and Mouth Disease Virus Antivirals | human cells with a luciferase reporter of 2A StopGo recoding; control for the full effect not named in the record | Potency, µM (titrated, usually from 57.9 µM), for inactives: at the highest dose signal change, negative = less light | 1.2% of 410,000 active | AID 1159524, 2015; active = well fitted falling curve with a large enough effect; inconclusive = small, poorly fitted or top-dose-only effect; inactive = no such curve, though single readings can be large or run the other way; tested in HEK293T cells; note: % is set by controls: 0 for no effect and ±100 for the full control effect; nearly all actives have a fitted effect of over 45% in size; luciferase light after 4 h
# Active calls of the source: *; ? = inconclusive; nt = no result given; & = joins results of further samples; [ ] = another dose, or the depositor's remark. Unless noted, calls come from the whole dose curve; as a rule, active means well fitted rising curve with a large enough effect; inconclusive means small, poorly fitted or top-dose-only effect; inactive means no such curve, though single readings can be large or run the other way. Potency is the fitted concentration of half-maximal effect.
SMILES,LASV entry inh,NS1 function inh,Cruzain inh Det,RE007 growth inh,Marburg entry inh,Cruzain inh noDet,SARS PLP yeast,StopGo reporter
O=C(Nc1nc2ccccc2n1CCN1CCOCC1)c1ccccc1,-15%,-4%,nt,-7%,-8%,nt,-4%,-20%
NC(=O)CSc1nc2c(sc3ccccc32)c(=O)n1CCCC(=O)NCC1CCCO1 (stereo not given),-5%,-7%,nt,1%,-3%[46.1 µM],nt,0%,-8%
Cn1cc(C2CC(c3ccccc3)=NN2C(=O)c2ccccc2)c2ccccc21 (stereo not given),?,-12%,-4.3%,-4%,?,-11%,10%,28%
Cn1c(CNC(=O)Nc2ccccc2Cl)nnc1SCc1ccccc1,?,-11%,1.1%,-3%,0%[46.1 µM],-1%,0%,-27%
CCOC(=O)c1ccc(NCc2nc3ccccc3[nH]2)cc1,1%,-10%,-7.5%,-18%,-2%,13%,12%,-15%
COc1cc(O)c(C(CCN2CCOCC2)c2ccc3c(c2)OCO3)c(OC)c1 (stereo not given),nt,-1%,nt,-15%,nt,nt,1%,-6%
COc1ccc(NC(=O)C2CCC(=O)N2C(=O)OCc2ccccc2)cc1 (stereo not given),22%[46.1 µM],2%,nt,-1%,12%[46.1 µM],nt,20%,7%
Cc1cc(C)cc(C(=O)N/N=C/c2ccoc2)c1,nt,12%,nt,11%,nt,nt,-1%,11%
Nc1ccccc1Sc1ccc(C(=O)c2ccccc2C(=O)O)cc1[N+](=O)[O-],-2%,1%,nt,-11%,0%[46.1 µM],nt,1%,14%
CN1CCN(C(=O)c2ccc(CS(=O)(=O)c3c(Cl)cccc3Cl)o2)CC1,nt,5%,-0.8%,4%,nt,-4%,?,-18%
Cn1c(SCC(=O)NCc2ccccc2)nc2ccccc21,10%,-12%,-3.8%,-1%,21%&21%,-5%,4%,-13%
Cc1ccc(S(=O)(=O)N2CCC(N3CCCCCC3)CC2)cc1,-6%,0%,1.0%,-8%,0%,1%,-3%,-2%
CCN(CC(=O)Nc1cc(Cl)ccc1C)c1ncnc2sc(C)c(C)c12,0%,0%,-6.9%,19%,?,0%,-15%,-13%
O=C(CSc1n[nH]c(-c2cccs2)n1)N1CCCc2ccccc21,-25%,-23%,-1.7%,7%,-21%,-1%,6%,-5%
Cn1ccsc1=NC(=O)c1ccccc1OC(F)F,5%[46.1 µM],-42%,nt,-9%,19%[46.1 µM],nt,-1%,0%
O=C(Nc1nc(-c2ccc(F)cc2)cs1)C1CCCO1 (stereo not given),?,-3%,-6.7%,-16%,-18%,-5%,-22%,-7%
Cc1cccc(NP(=O)(Oc2ccccc2F)Oc2ccccc2F)c1C,-5%,-15%,-9.9%,15%,?,4%,13%,-4%
Cc1ccccc1-c1noc(-c2cccnc2N(C)Cc2ccc(Cl)cc2)n1,13%[46.1 µM],nt,-3.6%,nt,-8%[46.1 µM],-1%,nt,-19%
COc1ccc(C2=NOC(C(=O)Nc3cc(Br)ccc3O)C2)cc1OC (stereo not given),-13%[14.3 µM],-8%,-1.2%,2%,5%,11%,-9%,31%[activator]
O=C(Nc1ccon1)c1csc2ccccc12,19%,-35%,-2.0%,-14%,1%,10%,-6%,6%
Cc1ccc(NC(=O)C(=O)NCC(c2cccnc2)N2CCN(Cc3ccccc3)CC2)cc1C (stereo not given),-3%[46.1 µM],nt,-3.4%,nt,nt,8%,nt,-15%
Cc1noc(NS(=O)(=O)c2ccc(N3CC(O)=C(c4ccccc4)C3=N)cc2)c1C,13%,-7%,0.0%,-2%,1%,5%,6%,3%
Cc1ccc(-c2cc(C(=O)N3CCN(C(=O)c4ccco4)CC3)[nH]n2)c(C)c1,nt,-1%,nt,1%,nt,nt,8%,-19%
Cc1ccc(C(c2c(C)n(C)n(-c3ccccc3)c2=O)c2c(C)n(C)n(-c3ccccc3)c2=O)s1,?,nt,nt,-8%,?,nt,28%,-12%
O=C(COc1ccc(Cl)cc1Br)Nc1ccncc1,5%,-53%,nt,-28%,?,nt,-21%,5%
CC(C)C(C(=O)C=[N+]=[N-])N1C(=O)c2ccccc2C1=O (stereo not given),6%,8%,1.4%,12%,15%[46.1 µM],6%,8%,-11%
CCn1cc(C(=O)O)c(=O)c2cc(F)c(N3CCN(C(=S)NC(=O)c4ccc(OC)cc4)CC3)cc21,nt,2%,nt,-9%,nt,nt,1%,-12%
CCCCN(CCCC)S(=O)(=O)c1ccc(SCC(=O)OCC)c([N+](=O)[O-])c1,-9%,3%,-2.2%,3%,1%,0%,-7%,nt
CCC(C(=O)NC1CCCC1)N(Cc1ccccc1Cl)C(=O)c1snc(C(N)=O)c1N (stereo not given),nt,-1%,nt,2%,?,nt,1%,-8%
O=c1[nH][nH]cc1C=Nc1cc(Cl)ccc1O,nt,-3%,nt,2%,nt,nt,-7%,12%
COc1ccc(N(CC(=O)N2CCN(c3ccc(F)cc3)CC2)S(=O)(=O)c2c(C)n[nH]c2C)cc1,-6%&-15%[46.1 µM],nt,-5.9%,5%,?,?,1%,11%&-26%
CCC(=O)N1N=C(c2ccc(C)o2)CC1c1ccc(Br)cc1 (stereo not given),?,-27%,-9.3%,6%,18%,1%,-41%,2%
COc1ccc(NC(C)=[N+](C)CCNS(=O)(=O)c2ccc(Cl)cc2)cc1Cl,nt,7%,nt,6%,nt,nt,11%,-6%
Cc1ccccc1S(=O)(=O)c1c(C)cc(C)n(C(C)C)c1=O,4%,-14%,-2.7%,0%,-9%,-3%,4%,17%
COc1ccc(-n2nc(C(=O)NCC(=O)N3CC(C)CC(C)C3)c3ccccc3c2=O)cc1OC (stereo not given),-24%[46.1 µM],2%,nt,-2%,?,nt,-2%,-16%
CC(C)c1ccc(CCNC(=O)CSC(=S)N2CCCC2)cc1,-14%,nt,nt,-15%,-5%,nt,-1%,-20%
CC1(C)[C@H](C(=O)O)N2C(=O)C[C@H]2S1(=O)=O,nt,nt,-1.6%,-3%,nt,-4%,nt,-14%
COc1ccc(NS(=O)(=O)c2ccc(N3CCOCC3)c(NC(=O)c3cccc(F)c3)c2)cc1,?,0%,-8.2%,-15%,?,11%,?,48%[activator]
O=C(CN1CCc2ccccc21)NC(=O)NC1CCCCC1,nt,0%,nt,-2%,nt,nt,-1%,-18%
Cc1cccc(Cn2c(COc3ccc(Cl)cc3)nc3ccccc32)c1,29%[46.1 µM],nt,-6.0%,nt,-16%[46.1 µM],-13%,nt,-4%
Cn1c(OCc2cccnc2)nc2c1c(=O)n(Cc1ccccc1)c(=O)n2C,0%,-17%,1.0%,3%,10%&10%,9%,-1%,-29%
COCCCNCCCCSc1ccc(Cl)cc1,?,-13%,-0.7%,-3%,?,1%,-34%,-9%
CC(C)(C)OC(=O)N[C@@H](Cc1ccccc1)C(=O)N1CCC(C(=O)N[C@@H](Cc2c[nH]c3ccccc23)C(=O)O)CC1,nt,-2%,nt,-4%,1%,nt,1%,6%
Cc1cc(NC(=O)c2ccc(Br)c(S(=O)(=O)N3CCCC3)c2)no1,1%,6%,1.4%,9%,-27%,-4%,0%,?
CC(Sc1nc2c(c(=O)[nH]1)CCCC2)C(=O)Nc1ccccc1C#N (stereo not given),9%[46.1 µM],25%,nt,-14%,-23%[46.1 µM],nt,3%,23%
CSc1cccc(CN2CCCC(CO)(Cc3cccc(Cl)c3)C2)c1 (stereo not given),nt,0%,nt,1%,nt,nt,0%,-24%
CCN(CC(=O)Nc1c(F)cccc1F)C(=O)CCN1C(=O)C2CCCCC2C1=O (stereo not given),11%,nt,nt,17%,18%[46.1 µM],nt,0%,-14%
COc1cccc(OCCCCN2CC(C)OC(C)C2)c1 (stereo not given),-2%,-3%,-0.4%,0%,-2%,-3%,-7%,-13%
O=C(NCCCN1CCOCC1)c1ccc2c(c1)N(Cc1ccccc1)C(=O)c1ccccc1S2,2%[46.1 µM],-5%,1.2%,-2%,nt,7%,-1%,2%&-5%
CC(C)CN1CC(C)C(=O)NC1=S (stereo not given),4%,nt,nt,-1%,14%,nt,nt,-11%
O=S(=O)(c1ccccc1)c1ncc(C(F)(F)F)cc1Cl,?,nt,nt,-7%,?,nt,-2%,11µM*
CCOC(=O)C1CCCN(C(=O)c2ccc3c(=O)n(CCOC)c(=S)[nH]c3c2)C1 (stereo not given),-25%[14.3 µM],1%,-3.8%,-6%,?,-12%,17%,?
CCN(CC)CC(=O)Nc1ccc2c(c1)Nc1ccccc1CC2,-14%,-10%,-2.0%,12%,?,5%,-8%,4%
Cc1nc(SCC(=O)c2ccc(Cl)cc2)c([N+](=O)[O-])[nH]1,1%,5%,-2.7%,-3%[3.69 µM],-2%,-4%,0%,1%
C=CCNC(=O)/C(=C\C=C\c1ccccc1)NC(=O)c1ccccc1Cl,?,-3%,-9.3%,5%,?,-7%,12%,34%[activator]
CC(=O)c1ccc(N(C)C)c2c(N(C)C)cccc12,-22%,0%,-1.1%,-14%,?,-13%,3%,3%
O=C(Nc1sc2c(c1C(=O)O)CCC2)c1cccc(Cl)c1,-29%[46.1 µM],-62%,nt,?,?,nt,-8%,-3%
CC1=C(C(=O)N2CCCCC2)C(c2ccc(Cl)cc2)n2c(nc3ccccc32)N1 (stereo not given),4%[46.1 µM],nt,-4.3%,nt,?,-3%,nt,0%
Cc1cc(C)c(-c2c(O)c3cccnc3n(C)c2=O)c(C)c1,-3%,nt,nt,32%,22%[46.1 µM],nt,nt,74%[activator]
NC(=O)c1ccc(-c2nnc(Nc3ccc(S(N)(=O)=O)cc3)c3ccccc23)cc1,13%,0%,nt,-24%,1%,nt,1%,7%
CCOC(=O)c1c(NC(=O)C2CC2)sc2c1CC(C)(C)OC2,9%[46.1 µM],-8%,nt,2%,0%[46.1 µM],nt,-1%,-19%
CCC(Oc1cccc(C)c1)C(=O)Nc1ccccc1C(=O)N1CCOCC1 (stereo not given),?,17%,nt,0%,-10%,nt,-3%,-11%
CC(=O)c1cccc(NC(=O)c2ccc(-c3ccccc3[N+](=O)[O-])o2)c1,?,19%,-9.9%,-4%,4.6µM*,-6%,3%,-60%
